Sa ugtP lethal: growth inhibition of ugtP-null S. aureus, primary screen, RN4220 ugtP deletion, OD600 | 16 h; some inactives read as strong as hits | growth inhibition, % (no concentration beside the values) | hit rate 0.54% among 330,000;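 active means z-score under -3 and OD600 up to 0.15 on both plates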;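 further: plate controls were untreated wells for no effect and antibiotic for full effect; wells of about 80 µL received 100 nL stock; the first replicate is given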
PrP UTR inh: inhibition of PrP 5' UTR reporter expression; cell-based PrP 5' UTR mRNA reporter, plate reader; AID 488862, 2010; inhibition, % (concentration not given with the values); hit rate 0.35% among 340,000;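 active means every replicate at 50% or more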;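 further: 0 = median of the neutral control wells; tested in H4 reporter cells; numbers are from one replicate; inactives centre near -14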
Autofluor counter: counter-screen for toxin protease inhibitors: compound fluorescence; fluorescence intensity (concentration not given with the values); AID 624483; compound autofluorescence counterscreen, microsphere flow cytometry; hits give high values; hit rate 3.1% among 360,000;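 active means at least 3 SD above the mean of all compounds, about 16000 in these data; inconclusive means too few beads counted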;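 further: 100 nL of 1 mM stock went into each well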
RN4220 kill: growth inhibition of S. aureus RN4220, primary screen, OD600; AID 1259311, 2017; hit rate 0.33% among 330,000; 16 h; inhibition, % (concentration not given with the values);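 active means z-score of -3 or lower and OD600 up to 0.18 on both plates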;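 further: plate controls were untreated cells for no effect and reference antibiotic for full effect; stock transfer was 100 nL into about 80 µL; one replicate is shown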
Mtb hypoxia rep: PubChem AID 1159583; M. tuberculosis hypoxia-regulated fluorescent reporter, fluorescence; fluorescence inhibition, % (test concentration not listed); hit rate 0.1% among 300,000;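 active means 35 to 45% if threefold the growth effect, above 45% if 1.5-fold the growth effect; inactive means the rest, general growth blockers included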;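 further: wells of about 50 µL received 100 nL stock; 0% = vehicle wells and 100% = reference inhibitor wells; whole bacteria with a GFP reporter of the hypoxia response; strong numbers were not always called active; many hits fall short of the cut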
BJeLR viability: MLPCN primary cell-based screen for lethality selective to Ras in HRASV12 cells. BJeLR (HRASV12) viability, CellTiter-Glo ATP luminescence, 48 h; reference of the scale not given here. inhibition, % (no concentration beside the values). hit rate 0.17% among 300,000. AID 1554, 2009;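 active means replicate mean above 50%; inconclusive means above 50% but judged a plate artefact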;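 further: 50 nL library stock added to about 25 µL; numbers are from one replicate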
Mtb hypoxia rep growth: second read-out of Mtb hypoxia rep, no call of its own (marks repeat the call); growth inhibition, %; measured here: M. tuberculosis growth (absorbance);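 0% = vehicle and 100% = reference antibiotic; read after six days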
The depositor's hits bear a star; ? = inconclusive; . = no result given.

SMILES | Sa ugtP lethal | PrP UTR inh | Autofluor counter | RN4220 kill | Mtb hypoxia rep | Mtb hypoxia rep growth | BJeLR viability
Cc1cc(NC(=O)c2cc3ccccc3o2)ccc1NC(=O)c1ccccc1 | 3 | -7 | 3882 | 7.8 | 16 | 5 | -11
CCN(C1CCS(=O)(=O)C1)S(=O)(=O)c1ccc2ccccc2c1 (stereo unspecified) | -6 | -11 | 5960 | -1.1 | -7 | 3 | 9
Cc1ccsc1C(=O)N1CCCC(C(=O)c2cc(F)ccc2F)C1 (stereo unspecified) | 1 | -7 | 4539 | 5.2 | 18 | 17 | 2
COc1ccccc1C(=O)NCCc1nc2ccccc2[nH]1 | 14 | -6 | 2672 | 4.3 | 8 | 9 | 0
COc1cc(C=NN2CCN(C3c4ccccc4-c4ccccc43)CC2)cc(OC)c1O | -15 | . | . | -0.4 | -7 | -7 | .
Cc1cc(C)cc(SCc2noc(C(=O)NCC3CCCO3)c2C(=O)O)c1 (stereo unspecified) | -1 | -30 | 3565 | 5.0 | 4 | 6 | -1
COc1ccc(CCNCC(O)COc2c(C)cccc2C)cc1OC (stereo unspecified) | 2 | -4 | 3101 | 3.0 | -7 | -5 | -5
CC(NC(=O)N1CC1(C)C)c1ccccc1 (stereo unspecified) | 2 | -12 | 3964 | 5.3 | 18 | 7 | .
O=C(NCCc1ccccc1Cl)C1CC(=O)N(C2CCCCC2)C1 (stereo unspecified) | 6 | 0 | 3710 | 0.4 | -2 | 6 | -5
COc1cc(NC(=O)Nc2ccc3c(c2)OCO3)cc(OC)c1OC | 5 | -20 | 2513 | 2.4 | 12 | 7 | 0
COc1ccc(C2C(C(=O)c3cccs3)=C(O)C(=O)N2c2nnc(C)s2)cc1OC (stereo unspecified) | 4 | -11 | 7571 | 2.0 | 1 | 17 | -6
Cc1cc(NC(=O)COC(=O)c2c(C)nn(Cc3ccccc3Cl)c2Cl)no1 | 6 | -18 | 24183* | 2.9 | 1 | -6 | -11
COc1ccc(Cl)cc1NC(=O)COC(=O)CNC(=O)C1CCCCC1 | -1 | -20 | 2946 | -4.0 | 7 | 6 | .
COc1ccc(N2C(=O)CC(N3CCN(c4ccccc4)CC3)C2=O)cc1 (stereo unspecified) | 8 | -11 | 4085 | 3.5 | 14 | 5 | -3
Cc1cc(C)n(C(C)CC(=O)Nc2ccc3c(c2)OCO3)n1 (stereo unspecified) | 1 | -23 | 4958 | 0.0 | 14 | 1 | 0
O=C(COC(=O)c1cncc(Br)c1)NCc1ccccc1 | 17 | -6 | 4256 | 1.2 | 12 | 5 | 8
CC(C)c1ccccc1N=C1SCCN1C1CCS(=O)(=O)C1 (stereo unspecified) | -2 | -1 | 2717 | 3.4 | . | . | -11
O=C(NC(=S)Nc1ccccc1N1CCOCC1)c1ccccc1F | 32 | 5 | 6430 | 0.7 | 10 | 4 | -5
Nc1nc(SCC(=O)Nc2cccc(S(=O)(=O)N3CCCCCC3)c2)n[nH]1 | -65 | -82 | 4003 | -1.6 | 15 | 10 | -2
CCOc1ccc2c(c1)C(NC(C)=O)C(=O)N2CCN1CCOCC1 (stereo unspecified) | -3 | -25 | 3653 | -0.6 | 9 | 4 | 3
O=[N+]([O-])c1cc(S(=O)(=O)Nc2ccccc2)ccc1NCc1ccccc1 | -17 | -5 | 2472 | -2.4 | -8 | -4 | -8
Cc1c(C(=O)Nc2cnccn2)oc2ccccc12 | -6 | -70 | 11601 | 1.8 | -10 | 4 | -15
COc1ccc(CCNC(=O)CSc2nnc(-c3cccc(F)c3)o2)cc1OC | -4 | -10 | 12643 | 2.6 | -5 | 1 | -3
CN(Cc1ccccc1)S(=O)(=O)c1nnc(NC(=O)c2ccccc2)s1 | 23 | 13 | 6154 | 26 | 2 | 5 | 8
COc1ccccc1NC(=O)Cn1cc(C(=O)c2ccco2)c2ccccc21 | 13 | -7 | 4360 | 13 | 15 | 7 | -3
COc1ccc(Nc2nc(C)cc(C)c2C(N)=O)cc1OC | . | -5 | 4012 | . | . | . | -3
Cc1nnc(SCC(=O)NCCN2C(=O)CSC2=O)s1 | 7 | -11 | 8185 | 6.6 | 16 | 12 | -11
COc1ccc(CNC(=O)C2CCNCC2)cc1 | 9 | -15 | 6607 | 4.9 | 2 | 5 | 1
c1ccc(Cn2nnc3c(N4CCc5ccccc5C4)ncnc32)cc1 | 6 | 1 | 20729* | -2.4 | 5 | 2 | 5
O=C(CCN1C(=O)C2CCCCC2C1=O)Nc1cc([N+](=O)[O-])ccc1Cl (stereo unspecified) | 7 | -11 | 3951 | 3.7 | 6 | 10 | .
COc1ccc(OC)c(/C=C/C(=O)OCC(=O)NCc2ccco2)c1 | 3 | -27 | ? | 4.6 | 6 | 3 | .
CCOC(=O)c1c(C)[nH]c(C)c1-c1ccccc1OC | -2 | -9 | 2229 | 2.6 | . | . | -4
COc1ccc(/C=N/NC(=O)CCc2c(C)n[nH]c2C)cc1O | . | -16 | ? | . | . | . | -7
Cn1cccc1Cc1nnc(SCC(=O)N2CCN(c3ccccc3)CC2)n1-c1ccc(F)cc1 | -1 | -22 | 24052* | 0.6 | 0 | -4 | -1
Clc1ccc(OCCn2cnc(Cl)c2Cl)cc1 | -9 | -10 | 4527 | 4.4 | -1 | -2 | 2
CC1(C)CC(N(Cc2ccccc2)C(=O)Cc2ccccc2)CCO1 (stereo unspecified) | 5 | -34 | 4031 | 3.2 | 0 | -1 | -2
COC(C[C@H]1O[C@H]1[C@@H](O)[C@H](C)OCc1ccccc1)OC | . | -5 | 3673 | . | . | . | -11
COc1ccccc1C(CC(=O)Nc1nccs1)c1ccco1 (stereo unspecified) | -1 | -3 | 2831 | 5.1 | 3 | 4 | -11
CC(C)CC(NC(=O)C1CCC(C)CC1)C(=O)Nc1cccnc1 (stereo unspecified) | 2 | -7 | 3836 | 2.0 | 5 | 11 | 0
O=C1CCc2cc(S(=O)(=O)Nc3ccc(C(F)(F)F)cc3)cc3c2N1CC3 | 0 | 10 | ? | 8.9 | 6 | 4 | 8
O=C(NC(=S)Nc1cccc([N+](=O)[O-])c1)C1CCCCC1 | 4 | -14 | 5314 | 4.7 | 15 | 17 | -14
Cn1c(=O)c2c(nc(CN3CCc4ccccc4C3)n2CC(=O)c2ccccc2)n(C)c1=O | 5 | -10 | 10351 | 8.8 | 14 | 3 | -4
O=C(Nc1cccc(Cl)c1)c1cc(-c2ccco2)on1 | -6 | -33 | 5491 | 3.1 | 14 | -1 | -1
Cc1cccn2c(=O)c(C(=O)NCCCN3CC(C)CC(C)C3)c(O)nc12 (stereo unspecified) | 13 | -19 | 6016 | 3.1 | 8 | 9 | 0
COc1ccc(C(=O)N2CCCC(Nc3ccc(C)c(C)c3)C2)cc1 (stereo unspecified) | -3 | -21 | 5580 | 3.9 | 15 | 8 | 4

The closing 2 compounds of the section above open the next one:
SMILES | Sa ugtP lethal | PrP UTR inh | Autofluor counter | RN4220 kill | Mtb hypoxia rep | Mtb hypoxia rep growth | BJeLR viability
Cc1cccn2c(=O)c(C(=O)NCCCN3CC(C)CC(C)C3)c(O)nc12 (stereo unspecified) | 13 | -19 | 6016 | 3.1 | 8 | 9 | 0
COc1ccc(C(=O)N2CCCC(Nc3ccc(C)c(C)c3)C2)cc1 (stereo unspecified) | -3 | -21 | 5580 | 3.9 | 15 | 8 | 4
O=C(ON=C(c1ccccc1)c1ccncc1)c1ccc(F)cc1 | 9 | . | . | 4.8 | 5 | 0 | .
COC(=O)[C@@]1(Cc2ccc(F)cc2)C2c3cc(C(=O)N(C)C)n(Cc4nc5ccccc5[nH]4)c3CC2CN1C(=O)c1ccccc1 (stereo partly specified) | 7 | . | . | -0.3 | 6 | 14 | .
CC(=O)Nc1ccc(S(=O)(=O)N(C)Cc2cnn(C)c2)cc1 | 7 | -9 | 5718 | -0.1 | 7 | 0 | -2
O=C(NC1CCCCC1)N1CCCC(c2nc3ccccc3[nH]2)C1 (stereo unspecified) | -11 | -20 | 15663 | -6.9 | -9 | 8 | -8
CC(=O)Nc1nc2c(c3c1c(=O)oc1ccccc13)CCCCC2 | 6 | . | . | 2.9 | 6 | 3 | -5
COc1cccc(CN2CCN(Cc3ccc(O)cc3)CC2CCO)c1 (stereo unspecified) | 4 | -19 | 3362 | 3.0 | 4 | 8 | 4
COc1cc2[nH]ccc(=O)c2cc1OC | 3 | -12 | 3688 | 8.0 | 17 | 6 | -4
CNC(=O)CON=Cc1ccc(N(C)C)cc1 | 1 | . | . | 3.2 | 13 | 7 | .
COc1ccccc1C(=O)n1nc(-c2ccco2)nc1N | -3 | -11 | 2499 | -14 | 0 | 6 | 1
O=C(NCCc1ccccc1)c1ccc(-c2ccccc2Cl)o1 | 17 | -19 | 3557 | 3.5 | 0 | 8 | 1
Cc1ccc(Cn2ncc3c(N4CCCC4)ncnc32)cc1 | -1 | -27 | 2423 | -11 | . | . | 10
COc1ccc(NC(=O)COC(=O)c2cc(=O)c3ccccc3o2)cc1OC | 4 | -7 | 3688 | -2.2 | 0 | -6 | .
C/C(N)=C(/C#N)C(=O)CSc1n[nH]c(-c2cccs2)n1 | -2 | -9 | 4412 | -4.3 | -5 | 17 | 8
Cc1cc(C(C#N)c2ccc(Cl)cc2)c(Cl)cc1NC(=O)c1cc(I)cc(I)c1O (stereo unspecified) | . | -1 | 4293 | . | . | . | -1
CCOc1ccc(-c2cc(C(=O)NN=C(C)c3cccnc3)c3ccccc3n2)c(OCC)c1 | -4 | . | . | -1.4 | -8 | -10 | .

5 entries drawn at random from the list so far, as already listed:
SMILES | Sa ugtP lethal | PrP UTR inh | Autofluor counter | RN4220 kill | Mtb hypoxia rep | Mtb hypoxia rep growth | BJeLR viability
O=C(NC1CCCCC1)N1CCCC(c2nc3ccccc3[nH]2)C1 (stereo unspecified) | -11 | -20 | 15663 | -6.9 | -9 | 8 | -8
CC(=O)Nc1nc2c(c3c1c(=O)oc1ccccc13)CCCCC2 | 6 | . | . | 2.9 | 6 | 3 | -5
Cn1c(=O)c2c(nc(CN3CCc4ccccc4C3)n2CC(=O)c2ccccc2)n(C)c1=O | 5 | -10 | 10351 | 8.8 | 14 | 3 | -4
Cc1cc(C)n(C(C)CC(=O)Nc2ccc3c(c2)OCO3)n1 (stereo unspecified) | 1 | -23 | 4958 | 0.0 | 14 | 1 | 0
CCN(C1CCS(=O)(=O)C1)S(=O)(=O)c1ccc2ccccc2c1 (stereo unspecified) | -6 | -11 | 5960 | -1.1 | -7 | 3 | 9

Further compounds
SMILES | Sa ugtP lethal | PrP UTR inh | Autofluor counter | RN4220 kill | Mtb hypoxia rep | Mtb hypoxia rep growth | BJeLR viability
COc1ccc(NS(=O)(=O)c2cc(NC(=O)c3ccc(=O)[nH]n3)ccc2N2CCOCC2)cc1 | -4 | -10 | 3715 | 6.5 | 10 | 2 | .
O=C1c2cccnc2C(=O)N1Cc1ccc(Cl)cc1 | 4 | -26 | 4249 | 1.4 | 21 | 12 | 0
COc1ccc(C2N(c3ccc4c(c3)OCCO4)C(=O)C2(F)F)cc1OC (stereo unspecified) | -6 | -13 | 3702 | 4.5 | -16 | 2 | 3
O=C(CSc1ccc2nnc(-c3ccccc3)n2n1)N1CCCc2ccccc21 | 3 | -25 | 2086 | 8.2 | 3 | 10 | -10
CN1CCN(C(=O)c2cnn3c2NC(c2ccccc2)CC3C(F)(F)F)CC1 (stereo unspecified) | 1 | -8 | 4227 | 4.1 | 13 | -4 | 18
CCSc1nc2ccccc2n1CC(N)=O | -3 | -18 | 9805 | 0.5 | 2 | 10 | 9

5 structures from above, ordered by SMILES length, ascending.
SMILES | Sa ugtP lethal | PrP UTR inh | Autofluor counter | RN4220 kill | Mtb hypoxia rep | Mtb hypoxia rep growth | BJeLR viability
COc1ccc(C2N(c3ccc4c(c3)OCCO4)C(=O)C2(F)F)cc1OC (stereo unspecified) | -6 | -13 | 3702 | 4.5 | -16 | 2 | 3
CN1CCN(C(=O)c2cnn3c2NC(c2ccccc2)CC3C(F)(F)F)CC1 (stereo unspecified) | 1 | -8 | 4227 | 4.1 | 13 | -4 | 18
Cc1cc(C(C#N)c2ccc(Cl)cc2)c(Cl)cc1NC(=O)c1cc(I)cc(I)c1O (stereo unspecified) | . | -1 | 4293 | . | . | . | -1
CCOc1ccc(-c2cc(C(=O)NN=C(C)c3cccnc3)c3ccccc3n2)c(OCC)c1 | -4 | . | . | -1.4 | -8 | -10 | .
COc1ccc(NS(=O)(=O)c2cc(NC(=O)c3ccc(=O)[nH]n3)ccc2N2CCOCC2)cc1 | -4 | -10 | 3715 | 6.5 | 10 | 2 | .
